High-throughput results as filed in PubChem.
Mtb H37Rv: M. tuberculosis H37Rv growth inhibitors, H37Rv strain (AID 1626). M. tuberculosis H37Rv growth inhibition; higher % means a stronger effect. inhibition, % at 10 µM, or IC50 in µM where a hit was titrated. 220,000 compounds, 0.95% hits;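 active means confirmed in a dose series; inconclusive means inhibition above 80% but not taken into the dose series; inactive means below 80% or under 30% at every dose of the series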;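 further: bacteria incubated seven days before Alamar blue readout; 0% = bacteria only wells and 100% = bacteria with antibiotic wells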
Arbovirus anti: antivirals against arbovirus infection | arbovirus infection cell-based antiviral screen | inhibition, % at 10 µM | 200,000 compounds, 0.37% hits;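 active means inhibition from about 30%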;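 further: bluetongue infection of BSR cells; cell survival read as ATP light after 72 h; 0% = infected wells without compound and 100% = uninfected wells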
Mtb betalactam: beta-lactam sensitization of Mtb H37Rv; M. tuberculosis H37Rv growth with meropenem, percent inhibition; hits of this screen are not shown here; inhibition, % at 25 µM; 330,000 compounds, 0.27% hits; AID 434955;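 active means about 74% or more and at least 40 points above the plate without the antibiotic, then above 30% in a dose series; inconclusive means first-round hits that could not be retested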;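 further: growth measured after seven days incubation then overnight dye step; 0% = bacteria only wells and 100% = bacteria with antibiotic; twin plates without the antibiotic show which effects depend on it; some results filed as inactive read as strong as hits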
YopH PTP inh: inhibitors of Yersinia enterocolitica YopH tyrosine phosphatase. fluorescence Ex485/Em525. inhibition, %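 (about 10 µM by stock and volumes)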. 140,000 compounds, 0.16% hits. AID 898;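 active means inhibition of 50% or more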;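 further: controls were vehicle for no effect and minimum signal wells for full effect; inactives centre near -20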
RecA splice inh: inhibitors of M. tuberculosis RecA intein splicing. P9WHJ3. cell-free RecA intein splicing, fluorescence. inhibition, %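 (about 9 µM by stock and volumes)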. 290,000 compounds, 0.75% hits; in the data active means inhibition above about 30%; inconclusive means no clear call, values can overlap the other calls;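 further: 0% = vehicle wells and 100% = reference inhibitor control wells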
Target sequence (P9WHJ3 whole entry, looked up, canonical isoform): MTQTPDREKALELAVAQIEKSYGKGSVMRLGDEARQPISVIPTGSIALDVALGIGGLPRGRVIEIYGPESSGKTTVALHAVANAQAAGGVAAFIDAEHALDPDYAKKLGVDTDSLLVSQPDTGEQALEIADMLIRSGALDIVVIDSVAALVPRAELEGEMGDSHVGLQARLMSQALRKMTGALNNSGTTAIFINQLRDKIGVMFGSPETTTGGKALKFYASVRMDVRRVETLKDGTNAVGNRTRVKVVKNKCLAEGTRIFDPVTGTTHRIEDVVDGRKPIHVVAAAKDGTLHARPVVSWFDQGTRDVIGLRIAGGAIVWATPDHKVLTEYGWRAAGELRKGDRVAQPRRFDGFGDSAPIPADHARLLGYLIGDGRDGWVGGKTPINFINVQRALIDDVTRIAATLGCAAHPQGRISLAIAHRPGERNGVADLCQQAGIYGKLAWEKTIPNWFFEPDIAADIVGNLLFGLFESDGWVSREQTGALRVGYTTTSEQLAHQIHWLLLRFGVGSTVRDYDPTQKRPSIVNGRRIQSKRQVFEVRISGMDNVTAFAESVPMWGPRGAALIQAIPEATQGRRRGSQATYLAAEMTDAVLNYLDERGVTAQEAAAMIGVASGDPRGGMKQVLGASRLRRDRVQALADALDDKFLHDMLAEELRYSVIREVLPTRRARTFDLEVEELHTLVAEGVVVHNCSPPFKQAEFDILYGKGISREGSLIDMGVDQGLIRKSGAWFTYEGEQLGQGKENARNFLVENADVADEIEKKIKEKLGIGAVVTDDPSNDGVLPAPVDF
Arbovirus anti repeat: also measured in Arbovirus anti; calls as there; inhibition, %; measured here: 10K subset replicate screen; many hits read low in the repeat;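 first of two repeat runs on a subset; 0% = infected and 100% = uninfected wells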
Numbers without * were called inactive; u = inconclusive; x = not tested or not shown. Not all compounds are listed; the hit share may differ from the screen's.

SMILES	Mtb H37Rv	Arbovirus anti	Mtb betalactam	YopH PTP inh	RecA splice inh	others
COc1ccc(C(=O)NC2CCN(C(=S)Nc3ccc(C)c(C)c3)CC2)cc1	-3.8%	1.7	-2.3	-26.5	-1.8
CC(=O)Nc1ccc(Oc2cc(N)cc([N+](=O)[O-])c2)cc1	-0.4%	-0.1	8.6	x	-0.5
COc1ccc(OC)c(NC(=O)NCCc2c[nH]c3ccccc23)c1	x	x	5.8	x	1.4
CC(C)OCCCNS(=O)(=O)c1ccc2ccccc2c1	8.1%	2.3	-7.4	-27.2	2.8
COc1ccc(C(=O)CSc2nnc(CNC(=O)c3ccccc3)n2C)cc1	x	x	2.7	x	0.4
CCC(C(=O)N1CCCCCC1)n1nc(C)n2c(cc3occc32)c1=O (stereo not given)	x	x	-4.1	x	2.9
O=C(NCc1cccs1)c1nc2c(nnn2Cc2ccccc2Cl)c(=O)[nH]1	0.9%	5.4	29.4	-20.9	1.7
Cc1ccc(S(=O)(=O)NC(C(=O)Oc2cc3oc(=O)cc(C)c3cc2Cl)C(C)C)cc1 (stereo not given)	-13.2%	9.3	3.5	-27.6	-73.9
Cc1cc(N2CCN(C(=O)c3ccco3)CC2)n2nc(C)c(-c3ccccc3)c2n1	1.5%	-3.9	x	-34.1	2.5
CN(Cc1ccccc1)S(=O)(=O)c1ccc(NS(=O)(=O)Cc2ccccc2)cc1	2.7%	21.4	-10.4	0.9	7.1
C=CCOc1ccc(C2C(C(=O)c3ccco3)=C(O)C(=O)N2Cc2cccnc2)cc1 (stereo not given)	-12.4%	0.3	-5.4	-6.3	2.9
[N-]=[N+]=NCC/C=C\C1NS(=O)(=O)OCC1O (stereo not given)	x	x	-8.4	x	-0.7
CN(CCO)C1=NS(=O)(=O)c2cc([N+](=O)[O-])ccc21	-2.2%	-5.8	1.8	x	-4.6
CC(C)(C)C1(c2ccccc2)NC(=O)N(CC(=O)N2CCOCC2)C1=O (stereo not given)	2.6%	5.5	0.6	-1.4	-0.4
Cn1c(CCCOc2ccc(Cl)cc2Cl)nnc1SCC(=O)Nc1ccc(F)c(Cl)c1	-2.2%	-11.4	10.7	-38.7	2.3
C#CCN(N(C)c1ncc(C(F)(F)F)cc1Cl)S(=O)(=O)c1ccc2ccccc2c1	5.8%	-1.5	-4.7	5.6	-4.5
Cc1ccccc1Cn1c(=N)n(CC(O)c2ccco2)c2ccccc21 (stereo not given)	0.6%	-16.3	-0.4	-34.6	-0.7
COCCNS(=O)(=O)c1ccccc1	-4.3%	-2.5	9.1	-7.1	1.0
Cc1nnc(NC(=O)CSc2nnc3ncccn23)s1	x	x	1.2	x	-1.6
COCCNC(=S)N1CCC(c2nc(-c3ccc(F)cc3)no2)CC1	-1.4%	26.2	4.5	x	-0.5
O=S(=O)(NCCCSc1ccccc1)c1ccccc1F	x	x	8.4	x	1.0
COc1ccccc1N(CC(=O)NC1CC2CCC1C2)S(=O)(=O)c1ccc(C)cc1 (stereo not given)	x	x	-8.3	x	8.4
COc1cc(NC(=O)CCNS(=O)(=O)c2ccc3c(c2)CCC(=O)N3)cc(OC)c1	-11.0%	0.2	3.9	-20.0	-3.4
Cc1ccc2nc(C(=O)O)c(C(=O)O)nc2c1	3.9%	2.0	5.5	-36.0	0.3
COc1cc2nc(-c3ccccc3)nc(N3CCCC3)c2cc1OC	7.0%	-0.3	x	-14.8	-0.4

Carrying on.
SMILES	Mtb H37Rv	Arbovirus anti	Mtb betalactam	YopH PTP inh	RecA splice inh	others
Cc1cccc(C(=O)NNC(=O)C(=O)NC(C)(C)C)c1	1.2%	6.7	3.1	-14.4	0.8
O=C(Nc1ccc(Cl)c(Cl)c1)Nc1cc(C(=O)NC2CC2)ccc1Cl	9.7%	-1.8	-4.0	-3.8	-1.7
O=C(O)c1c2c(nc3ccc(F)cc13)CCC2	-14.3%	10.8	-5.7	-31.6	-0.3
CC(C(=O)Nc1cccc([N+](=O)[O-])c1)n1nnc2ccccc21 (stereo not given)	-2.2%	-0.9	-10.9	-24.6	2.1
CCCCCOc1ccc(C2NC(=O)NC2=O)cc1 (stereo not given)	11.4%	0.6	6.5	-33.2	0.5	Arbovirus anti repeat=-6.3
CCCn1c(O)c2ccc(C(=O)N=NC(=O)c3cccnc3)cc2c1O	-0.5%	20.4	-5.3	-27.9	-1.8
COCCn1c(SCC(=O)N2CCN(c3ccccc3)CC2)nc2c(c1=O)SC(C)C2 (stereo not given)	-6.2%	-12.7	-1.3	x	2.3	Arbovirus anti repeat=0.6
COC(=O)C(O)(c1ccc(NC(=S)NC(=O)c2ccc(Cl)cc2Cl)cc1)C(F)(F)F (stereo not given)	14.9%	13.5	-1.5	-5.7	5.0
CC(C)(C)c1cccc(OCCCSc2ncccn2)c1	5.9%	10.0	-6.9	-102.9	12.8
NS(=O)(=O)c1ccc(NC(CNS(=O)(=O)c2ccccc2)c2ccccc2)cc1 (stereo not given)	-1.8%	7.1	-2.3	x	-2.2
COc1ccc(/C=C/C(=O)c2oc3ccc(F)cc3c2C)cc1	8.5%	-2.0	6.0	-18.6	5.0
O=C(CCCOc1ccc(Cl)cc1Cl)NNC(=O)C1CCC1	1.6%	1.0	-7.9	x	-2.6
CC1(C)CC(=O)C=C(NCc2ccc(Cl)c(Cl)c2)C1	-0.2%	-0.4	9.2	-28.0	3.9
Cc1cc(C)nc(/N=C(\N)C2=C(O)CC(C)(C)CC2=O)n1	-1.5%	-4.6	0.1	-17.9	x
CCc1cc2cc3c(cc2nc1SCC(=O)OC(C)C)OCO3	15.1%	1.9	0.1	x	3.1
COc1ccc(Nc2nnc(-c3ccncc3)s2)cc1Cl	x	x	1.1	x	-1.1
O=[N+]([O-])c1ccc(N2CCCCC2)c2ncccc12	3.5%	-0.7	-4.7	x	x
CCOc1ccc2oc(-c3ccccc3)c(C(N)=O)c2c1	x	x	7.9	x	-1.1
O=C(O)c1ccc2c(c1)C(=O)N(C(Cc1ccc(O)cc1)C(=O)O)C2=O (stereo not given)	-0.8%	8.7	12.8	-40.8	-0.4
O=C(Nc1cccnc1)NC1CCCCC1	-0.1%	3.9	-3.7	x	x
c1ccc(-n2c(SCC3CCCCO3)nnc2-c2cnccn2)cc1 (stereo not given)	-8.1%	1.1	-11.4	-78.5	-0.2
O=C(NC1CCCN(Cc2ccc(Cl)cc2)C1)c1ccnc(Cl)c1 (stereo not given)	x	x	-6.3	x	4.2
CCCc1nc(SCC(=O)NNC(=O)c2ccc(OC)cc2)c2ccccc2n1	7.0%	2.6	2.0	x	-0.5
Cc1cccc(C)c1NC(=S)N(c1ccccc1)C(C)C	-7.6%	-4.5	5.5	-3.5	-0.8
CCOc1ccccc1NC(=O)CN(C)S(=O)(=O)c1ccc(OC)c(C)c1	10.9%	1.2	5.9	29.0	3.2

The list continues:
SMILES	Mtb H37Rv	Arbovirus anti	Mtb betalactam	YopH PTP inh	RecA splice inh	others
Cc1ccc(S(=O)(=O)CC(c2ccccc2)N2CCCCC2)cc1 (stereo not given)	6.7%	-1.0	6.1	x	-0.6
Nc1nc(CCl)nc(Nc2ccc3ccccc3c2)n1	u	x	x	x	46.2*
CC(=O)Nc1ccc(S(=O)(=O)NCC2CCC(C(=O)NCc3ccccc3)CC2)cc1 (stereo not given)	6.6%	22.7	-8.2	x	-0.6
CCCn1ncc(C(=O)N(C)C2CCCN(Cc3ccccc3F)C2)c1C (stereo not given)	x	x	5.3	x	0.2
Cc1ccc(S(=O)(=O)NC(=O)Nc2ccc(C)cn2)cc1	x	x	2.0	x	-1.7
COc1cc2cccc(OC)c(=O)c2c(O)c1OC	0.6%	-2.1	1.6	-27.7	-2.0
CCN1CCN(c2ccc(S(=O)(=O)N3CCCCC3)cc2NC(=O)Cc2ccc(Cl)c(Cl)c2)CC1	x	x	91.1	x	1.9
O=C(COC(=O)c1ccc(Sc2ccccc2)c([N+](=O)[O-])c1)NC1CCS(=O)(=O)C1 (stereo not given)	-2.0%	7.4	5.7	-33.0	3.8
Nc1c(C(=O)c2ccccc2)sc2snc(SCC(=O)c3ccccc3)c12	8.6%	2.9	39.7	-2.2	4.5
Nc1nc(Nc2cccc(F)c2)nc2ccccc12	-0.6%	20.1	-6.2	-36.0	x	Arbovirus anti repeat=19.5
CCOc1ccc(NC(=O)CC2C(=O)N(c3ccc(OC)cc3)C(=O)N2CCc2ccc(OC)c(OC)c2)cc1 (stereo not given)	-10.2%	1.6	5.5	x	x
O=C(c1cc(-c2ccccc2)nn1-c1ccccc1)N1CCN(S(=O)(=O)c2ccc(F)cc2)CC1	x	x	0.8	x	-2.8
COc1ccccc1CNc1ncc(-c2ccc(F)cc2)n1C	x	x	-1.8	x	0.2
CN(CC(=O)Nc1ccccc1Br)C(=O)CCc1ccccc1	x	x	4.1	x	2.5
Fc1ccc(-n2c(-c3ccco3)nc3nc4ccccc4nc32)cc1	-3.7%	-2.5	-8.4	-11.1	-14.3
CCCCCCOc1ccc(N2C(=O)CC(NCCc3ccc(S(N)(=O)=O)cc3)C2=O)cc1 (stereo not given)	-4.3%	-1.0	0.7	-30.0	4.3
Cc1cc(=O)oc2cc(OC(=O)CCCCCN3C(=O)c4ccccc4C3=O)ccc12	73.6%	1.5	69.2	0.7	0.3
Cc1ccc(-n2nnc3c(SCC(=O)NCc4ccco4)ncnc32)cc1	5.0%	0.5	48.1	-26.9	17.6
O=C(C1CC(c2ccc(F)cc2)=NO1)N1CCN(c2ccccc2)CC1 (stereo not given)	-1.7%	-5.8	-2.5	-62.0	1.5	Arbovirus anti repeat=2.3
CCOCCn1ccc2c(OCC(=O)Nc3ccc(OC)c(OC)c3)cccc2c1=O	x	x	-12.6	x	-2.5
CCc1nc2ccccc2n1CC(O)COCC1CC=CCC1 (stereo not given)	0.5%	10.3	-3.7	x	1.0
COC(=O)Nc1nnc(Cc2ccccc2)s1	0.8%	-4.6	u	-53.0	-1.9
Cc1cc(C)c(C#N)c(SCc2ccc3c(c2)OCO3)n1	0.0%	8.3	-2.9	17.9	1.3
CCc1ccc(N2CC(C(=O)N/N=C/c3ccccc3OC)CC2=O)cc1 (stereo not given)	x	x	0.7	x	0.4
CCCCNc1cc(Cl)nc(N)n1	-6.0%	x	-12.2	x	0.4

The final three entries of the part above open the next one:
SMILES	Mtb H37Rv	Arbovirus anti	Mtb betalactam	YopH PTP inh	RecA splice inh	others
Cc1cc(C)c(C#N)c(SCc2ccc3c(c2)OCO3)n1	0.0%	8.3	-2.9	17.9	1.3
CCc1ccc(N2CC(C(=O)N/N=C/c3ccccc3OC)CC2=O)cc1 (stereo not given)	x	x	0.7	x	0.4
CCCCNc1cc(Cl)nc(N)n1	-6.0%	x	-12.2	x	0.4
O=S(=O)(Nc1ncnc2sc3c(c12)CCC3)c1ccc(Cl)s1	5.8%	8.5	44.3	-4.6	2.2
O=C(C1CC1)n1cc(C(=S)N2CCOCC2)c2ccccc21	-0.1%	5.6	4.2	-42.7	-1.5
O=C(NCc1ccccc1)c1onc(CSc2nc3ccccc3[nH]2)c1C(=O)NCc1ccccc1	x	x	4.2	x	12.0
CCCCCCCC(=O)Nc1cc(C(=O)NCCC)ccc1N1CCC2(CC1)CC(c1cccc(Br)c1)=NO2	x	x	0.1	x	-4.1
CSCCC(C(=O)OCC(=O)c1ccc(C)c(C)c1)N1C(=O)c2cc(Cl)c(Cl)cc2C1=O (stereo not given)	-9.9%	-3.1	4.5	-26.8	-0.2
COc1ccccc1NC(=O)C(C)NS(=O)(=O)c1ccc(Cl)cc1 (stereo not given)	4.2%	5.3	12.6	1.1	-2.5
CCCCn1c(O)c(C(C)=NC(C)c2ccccc2)c(=O)[nH]c1=O (stereo not given)	-3.8%	-14.1	1.1	-37.9	-6.3
Cc1ccc2[nH]c3c(c2c1)CN(C(=O)CN1C[C@H]2C[C@@H](C1)c1cccc(=O)n1C2)CC3	x	x	-4.2	x	-0.3
COC(=O)c1sccc1NN1C(=O)c2ccccc2C1=O	-11.6%	x	-3.5	x	-0.8
Cc1ccc(OCC(=O)NNc2c3ccccc3nc3ccccc23)cc1	44.0%	-4.0	52.1	-11.4	1.2
CCOC(=O)c1c(-c2ccco2)csc1N	-12.9%	-7.6	-15.7	-29.6	3.2
CCOC(=O)CS(=O)(=O)c1ccc(O)cc1	-0.4%	2.0	-5.7	x	-0.5
CCOc1ccc2nc(N3CCC(C(=O)N4CCN(c5ccccn5)CC4)CC3)sc2c1	65.3%	7.0	2.9	-6.5	-0.7	Arbovirus anti repeat=12.4
Cc1ccc(-c2ccc(/C=N/O)o2)cc1[N+](=O)[O-]	3.4%	-10.5	4.8	x	1.5
COc1cc(/C=N/N2CCN(c3ccccc3)CC2)ccc1OC(C)=O	x	x	4.1	x	-0.7
Cc1csc(NC(=O)CSc2nnc(-c3ccc(Cl)cc3)n2N)n1	1.0%	-4.8	-7.1	9.2	-4.6
